HPGD inh: blocks human HPGD enzyme activity. P15428. purified HPGD, NADH fluorescence kinetic, PGE2 substrate. Potency, µM, for the others: at the highest dose activity change, negative = inhibition, actives largely listed as inhibitors. 150,000 tested, 4.3% active; active = well fitted inhibition curve with a large enough effect (not every such curve was filed as active); inconclusive = small, poorly fitted or top-dose-only effect, or another doubt; inactive = no such curve, though single readings can be large or run the other way;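 also: top concentration of the series not given in the record; plate controls included wells without enzyme; inactives centre near -10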
Target sequence (P15428 whole entry, looked up): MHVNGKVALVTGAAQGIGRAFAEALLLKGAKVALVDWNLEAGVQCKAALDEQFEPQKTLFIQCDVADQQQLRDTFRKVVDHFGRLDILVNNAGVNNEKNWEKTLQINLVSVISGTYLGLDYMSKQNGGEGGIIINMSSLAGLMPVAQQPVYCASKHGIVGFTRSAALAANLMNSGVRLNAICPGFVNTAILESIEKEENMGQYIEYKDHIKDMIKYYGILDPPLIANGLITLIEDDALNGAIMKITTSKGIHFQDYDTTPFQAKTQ
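20 nM HPGD preincubated 15 min at room temperature with compound in 50 mM Tris-HCl pH 8, 0.01% Tween 20. Started with 1 mM NAD+ and 30 uM prostaglandin E2; NADH fluorescence (360/450 nm) read 5 times over 30-s intervals, last minus first.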
Numbers without * were called inactive; ? = inconclusive; & = joins results of further samples. % is scaled to controls: 0 for no effect and ±100 for the full control effect; potency is read from the fitted curve at half-maximal effect. Some of the compounds tested. The share of hits here may be higher or lower than overall.

SMILES	HPGD inh
FCCCOc1ccc(/C=N/OCc2ccc(Cl)cc2Cl)cc1	-3.9%
CCOC(=O)c1c(NC(=O)CC2Sc3ccc(C(F)(F)F)cc3NC2=O)sc(C)c1C (configuration not stated)	0.5%
O=C(O)c1cnn2cc(-c3[nH]ncc3[N+](=O)[O-])cnc12	-25.8%
CC(=O)OC1CC(n2ccc(NC(=O)c3ccccc3)nc2=O)OC1CO (configuration not stated)	-7.4%
CCOc1cc(C=O)ccc1OCCSc1ccc(Cl)cc1	?
Cc1cc(C)nc(-n2nc(C)c3c(C(F)F)cc(C)nc32)n1	-15.8%
O=C(c1cc2ccccc2c(=O)o1)N1CCCC1	-13.2%
O=C(Cc1c[nH]c2ccccc12)NCc1ccc2c(c1)OCO2	-17.7%
CCOC(=O)Cc1csc(NC(=O)C2CCCN(S(=O)(=O)c3cnc[nH]3)C2)n1 (configuration not stated)	-5.5%
COc1ccccc1CC(=O)NCC1CCCO1 (configuration not stated)	25.1µM*
COc1ccc(CNCCSc2nnnn2C)cc1OC	-11.0%
CCOC(=O)CSc1nc(-c2ccc3c(c2)OCO3)ccc1C#N	?
Cc1ccc(S(=O)(=O)N2CCN=C2SCc2ccc(Cl)c(Cl)c2)cc1	-16.3%
CCN1C(=O)c2cccc3c(S(=O)(=O)NCCc4c[nH]c5ccccc45)ccc1c23	-9.0%
CCc1cc2c(CN3CCN(C)CC3)cc(=O)oc2cc1O	?
COc1cc(/C=N/N2C(=O)C3C4c5ccccc5C(c5ccccc54)C3C2=O)ccc1O (configuration not stated)	-14.8%
COc1cc(OC)cc(C(=O)Nc2ncc3c(n2)CC(C)(C)CC3=O)c1	2.0%
C#CCSc1nc(Cc2ccc(Cl)cc2)nc2ccccc12	-9.2%
COC(=O)COc1cc(C)cc2oc(=O)c(CC(=O)OC)c(C)c12	?
CC(C)(C)n1nnnc1C(c1ccc(F)cc1)N1CCN(Cc2ccc3c(c2)OCO3)CC1 (configuration not stated)	-8.4%
COc1ccc(NC(=O)C(NC(=O)Cc2cccs2)c2ccc(C)cc2)cc1 (configuration not stated)	2.0%
CC(=O)N1CCN(Cc2nc3cc(NC(=O)c4ccccc4C)ccc3n2C)CC1	-12.6%
CCOC(=O)C1CCCN(c2c(Nc3ccc(C)c(C)c3)c(=O)c2=O)C1 (configuration not stated)	-19.8%
Cc1cccc(C(=O)Nc2ccccc2C(=O)OCc2c(C)noc2C)c1	-26.5%
Cc1cc(C)c(NC(=O)c2ccccc2N(C)S(C)(=O)=O)c(C)c1	2.3%
COc1cc(S(=O)(=O)Nc2ccc(C)cc2)ccc1N=Cc1c(C)[nH]n(-c2ccc(C)cc2)c1=O	-16.7%
O=C(CSc1nnc(-c2ccccc2)o1)n1c2c(c3ccccc31)CCCC2	-8.2%
Cc1sc2nc(CN3CCC(C)CC3)nc(Cl)c2c1C	-0.8%
O=C1Nc2ccccc2Nc2ncccc21	-23.0%
COc1cccc(/C=C2\N=C(c3c(-c4ccccc4)noc3C)OC2=O)c1OC	-8.2%
CN(C=C1C(=O)CC(C)(C)CC1=O)CCN1CCNCC1	-5.5%
COc1ccc(C(=O)Nc2ccccc2C(N)=O)cc1	-0.9%
Cc1[nH]c(=O)[nH]c(=O)c1S(=O)(=O)N1CCCC(C(=O)NCc2ccccc2Cl)C1 (configuration not stated)	-8.0%
COc1ccc(CNC(=O)c2c(O)c3cccc4c3n(c2=O)CCC4)cc1	-23.6%
Cc1c(NC(=O)C(C)N2C(=O)C3C4C=CC(C4)C3C2=O)c(=O)n(-c2ccccc2)n1C (configuration not stated)	-10.7%
Cc1onc(-c2ccccc2)c1C(=O)Nc1ccncc1	-5.0%

4 structures from above, arranged by formula weight, low to high:
SMILES	HPGD inh
Cc1onc(-c2ccccc2)c1C(=O)Nc1ccncc1	-5.0%
Cc1sc2nc(CN3CCC(C)CC3)nc(Cl)c2c1C	-0.8%
COc1cccc(/C=C2\N=C(c3c(-c4ccccc4)noc3C)OC2=O)c1OC	-8.2%
Cc1[nH]c(=O)[nH]c(=O)c1S(=O)(=O)N1CCCC(C(=O)NCc2ccccc2Cl)C1 (configuration not stated)	-8.0%

Later entries
SMILES	HPGD inh
COc1ccc(OC)c(C2CC(=O)N3CN(c4cccc(Cl)c4C)CSC3=C2C#N)c1 (configuration not stated)	7.94µM*
Cc1ccc(S(=O)(=O)CCc2nnc(NC(=O)c3cnccn3)s2)cc1	-0.2%
Cc1ccccc1C(=O)c1c[nH]c(C(=O)NCC2CCCO2)c1 (configuration not stated)	6.31µM*
O=C(C1=COCCO1)N1CCN(C(c2ccccc2)c2ccccc2)CC1	-17.2%
COCCCNC(=O)CS(=O)(=O)Cc1nc(-c2cccc(OC)c2)oc1C	-17.3%
Cc1cc2ccccc2n2c(SCC(=O)N3CCc4ccccc4C3)nnc12	-22.8%
Cc1ccc(S(=O)(=O)N2CCCC(C(=O)Nc3cccnc3)C2)cc1 (configuration not stated)	-7.5%
CCn1c(COc2ccccc2C)nnc1SCC(=O)OC	-5.4%
CCOC(=O)C(=O)Nc1ccc2c(c1)OCO2	-2.6%
O=C(C1CCN(S(=O)(=O)Cc2ccccc2)CC1)N1CCCc2ccccc21	-4.0%
O=C1C(c2ccncc2)=C(O)c2ccccc21	-19.2%
Nc1ncnc2c1ncn2[C@H]1CC[C@@H](CO)O1	-8.2%&-5.5%

Records listed so far marked active in HPGD inh:
SMILES	HPGD inh
COc1ccccc1CC(=O)NCC1CCCO1 (configuration not stated)	25.1µM*
COc1ccc(OC)c(C2CC(=O)N3CN(c4cccc(Cl)c4C)CSC3=C2C#N)c1 (configuration not stated)	7.94µM*
Cc1ccccc1C(=O)c1c[nH]c(C(=O)NCC2CCCO2)c1 (configuration not stated)	6.31µM*

Rewritten bar-delimited: 2 of the compounds above.
Compound | HPGD inh
O=C1Nc2ccccc2Nc2ncccc21 | -23.0%
COc1cccc(/C=C2\N=C(c3c(-c4ccccc4)noc3C)OC2=O)c1OC | -8.2%

(cont.)
SMILES	HPGD inh
Cc1nc(NC(=O)COC(=O)CCS(=O)(=O)c2ccccc2Cl)c(Cl)cc1Cl	-18.7%
Cc1ccc(C)c(NC(=O)c2cnn3ccccc23)c1	-9.6%
COc1ccc(NC(=O)N2c3ccccc3CC2C)cc1OC (configuration not stated)	-16.4%
O=C(OCc1cnc(Cl)s1)c1ccc(Cl)cc1	-7.6%
Cc1oc(-c2ccccc2F)nc1CN1CCC(C(=O)NCc2ccco2)CC1	1.6%
S=c1[nH]nc(-c2ccncc2)n1/N=C/c1ccccc1	31.6µM*
CCOC(=O)C1CCN(C(=O)c2ccccc2Oc2ccccc2)CC1	-12.8%
Cc1oc2cc(OCc3cnn(-c4ccccc4)c3)ccc2c(=O)c1Oc1ccccc1F	-18.0%
Nc1nc(SCc2ccccc2Cl)cc(C(=O)O)n1	-21.5%
S=C(NCC1COc2ccccc2O1)Nc1ccc(Br)cc1 (configuration not stated)	-26.7%
COc1cc(OC)c(S(=O)(=O)N2CCCCC2)cc1S(=O)(=O)N1CCCCC1	2.6%
COc1cc(CCN2C(=O)N[C@@H](CCc3ccccc3)C(C(C)=O)=C2C)cc(OC)c1OC	-2.5%&-2.9%
Cc1nnc(NC(=O)Nc2ccc(Cl)c(Cl)c2)s1	-6.0%
Cc1cccc(OC2(c3ccccc3)OC(=O)c3ccccc32)c1C (configuration not stated)	-20.1%
COC(=O)CC1C(=O)NCCN1C(=S)Nc1cc(C)cc(C)c1 (configuration not stated)	-11.9%
CCN=c1scc(-c2ccco2)n1/N=C/c1ccc(O)cc1	?
CCOC(=O)C1CCN(c2nc3cc(OC)ccc3cc2C#N)CC1	?
CN(C)CCCOC(=O)c1cc2ccccc2o1	0.0%
COCCn1c(=S)[nH]c2ncccc2c1=O	-10.6%
CCCc1cc(=O)[nH]c(SCc2nc3ccccc3s2)n1	?
CCCCn1nnc(NC(=O)c2ccc(-c3ccccc3)cc2)n1	-14.5%
CC(C)NC(=S)N/N=C/C1=CCC2CC1C2(C)C (configuration not stated)	-10.2%
CCCc1cc(=O)[nH]c(SCCOc2ccc(OCC)cc2)n1	-28.0%
CCOC(=O)Nc1sc(=S)n(C)c1C	25.1µM*
O=P(Cc1ccncc1)(c1ccccc1)c1ccccc1	-10.4%
CC1(C)SC(=Nc2ccccc2)N(S(=O)(=O)c2ccccc2)C1=O	-1.7%
CC(NC(=O)c1cncc(Br)c1)c1ccc(S(N)(=O)=O)cc1 (configuration not stated)	-10.1%
O=C(CO/N=C/c1ccc(OC(F)F)cc1)NCc1cccs1	?
COc1cc(-c2nnc(SCc3cccnc3)n2C)cc(OC)c1O	-12.0%
CCC1CCCCN1C(=O)CSc1nnc(CNC(=O)c2cc(OC)c(OC)c(OC)c2)o1 (configuration not stated)	-16.9%
CC(C)(C)c1ccc(C(=O)OCC(=O)Nc2sc3c(c2C#N)CCC3)cc1	-20.9%
COc1ccccc1OCc1ccc(C(=O)NCc2ccco2)o1	-16.3%
CC(SCc1ccccc1)C(=O)N/N=C/c1ccc2c(c1)OCO2 (configuration not stated)	?
Cc1ccccc1NC(=O)c1ccccc1NC(=O)c1ccco1	-4.6%
COc1cc(O)c2c(=O)cc(-c3ccccc3)oc2c1	-4.3%
CCC(=O)N(Cc1ccco1)c1nc(-c2ccc(OC)cc2)cs1	-1.6%
COc1ccc(-c2cc(C(F)(F)F)n3nc(C(=O)O)cc3n2)cc1OC	-14.6%
O=C(CSCc1ccccc1Br)N/N=C/c1ccc2c(c1)OCO2	-27.9%
CCN(Cc1ccccc1)C(=O)CN1C(=S)NC(C)(C)CC1C (configuration not stated)	-3.1%
COc1cc(C(=O)NCCCNc2nc3cc(C)cc(C)c3cc2C#N)cc(OC)c1OC	?
Cc1cccc(NC(=O)c2sc3nc(-c4ccc(F)cc4)cn3c2C)n1	?
COc1cc([N+](=O)[O-])ccc1NC(=O)CSc1nc2ccccc2n1-c1ccccc1	-8.9%
CCOC(=O)N1CCN(S(=O)(=O)c2ccc3c(c2)CCN3C(=O)C2CC2)CC1	-0.2%
COC(=O)c1sc(NC(=O)CSc2nnc(C(C)C)n2C)nc1C	-8.0%
CCOC(=O)/C(=C/c1ccc(F)cc1)NC(C)=O	-8.8%
CCn1c(Cc2c(C)[nH]c3ccccc23)nnc1SCC(=O)NCc1ccco1	-0.1%
CCCCCn1c(=S)[nH]c2ncccc2c1=O	3.7%
CC(C)N1C(=O)C2C(c3ccccc3O)NC(C)(C(=O)O)C2C1=O (configuration not stated)	-3.8%
CCCC(C)NC(=O)Cc1ccc(Br)cc1 (configuration not stated)	-16.9%
COc1ccc(-c2[nH]c(-c3ccccc3)nc2SCC(=O)Nc2nccs2)cc1	-25.0%
COc1ccc(/C=N/Nc2nnc(-c3ncc[nH]3)c3ccccc23)cc1	-2.5%
COc1ccccc1N(CC(=O)Nc1cccnc1)S(=O)(=O)c1ccccc1	14.1µM*
O/N=C1/CCc2nonc2/C1=N/O	5.1%
CCOC(=O)c1cnc2ccc(OCC)cc2c1N(C)Cc1ccccc1	-4.7%
CCOC(=O)c1cc(=O)n2nc(-c3ccc(C)cc3)nc2s1	-29.1%
CCOC(=O)CSc1nnc([C@H](C)NC(=O)OC(C)(C)C)o1	-3.2%
COc1ccc(C(C(=O)Nc2ccc(C(C)C)cc2)N(C)C(=O)CNC(C)=O)cc1 (configuration not stated)	-21.6%
CC(CCc1ccco1)NC(=O)Cn1ncc2c1-c1ccccc1OC2 (configuration not stated)	-16.9%
CC(C)NC(=O)CC(=O)N/N=C/c1ccc(F)cc1	1.8%
CCOc1ccc(CCNC(=O)c2ccc(CNS(=O)(=O)c3ccccc3)cc2)cc1OCC	-12.1%

(more compounds)
SMILES	HPGD inh
Clc1ccc(-n2nnnc2SCc2c(-c3ccccc3)nc3sccn23)cc1	-18.6%
CC(C)c1ccc(NS(=O)(=O)c2ccc(Cl)nc2)cc1	-9.9%
COc1cc2c(cc1OC)CN(C(=O)COc1ccc(C#N)cc1)CC2	-3.4%
Clc1ccccc1NN(Cc1ccncc1)c1ccccc1Cl	-9.5%
CCOC(=O)CSc1nc(C)cc(C)n1	-8.9%
COC(=O)c1c(NC(=O)CN2C(=O)NC3(CCc4ccccc4C3)C2=O)sc2c1CCCCC2 (configuration not stated)	-15.7%
Cn1c(CC2C(=O)Nc3ccc(Br)cc32)nc2ccccc2c1=O (configuration not stated)	-3.7%
Cc1cc(C2=NNC(=NC3CC3)SC2)c(C)n1Cc1ccco1	-22.1%
O=C(Cc1ccccc1)NCC(=O)OCC(=O)c1ccc([N+](=O)[O-])cc1	-2.2%
Cc1ccc(S(=O)(=O)c2ccc(Cl)cc2)cc1S(=O)(=O)N(C)CC(=O)O	?
C=C1N(c2ccccc2)C(=O)OC1(C)C	-5.5%
Cc1ccc(C(=O)N(Cc2nc(-c3ccc(C)cc3)no2)C(C)C)cc1	-15.4%
COc1ccc(C(CC(=O)O)NS(=O)(=O)c2ccc(C)cc2)cc1 (configuration not stated)	-10.4%
CN(C)/C=N/c1cc(=O)n(C)c(=O)n1Cc1ccccc1	-17.3%&-14.5%
CCOCCCNC(=O)C1CCC(CNS(=O)(=O)c2ccc(F)cc2)CC1 (configuration not stated)	?
Cc1ccc(-c2nnc3sc(CCc4ccccc4)nn23)cc1	14.1µM*
CCOC(=O)c1c(C)[nH]c(C)c1C(=O)COC(=O)c1cccc(S(=O)(=O)NC)c1	-6.6%
COCCn1cc(C(=O)N2CCC(C)CC2)c2c3ccccc3n(C)c2c1=O	?
O=C(CNC(=O)c1ccco1)OCc1ccc(C(=O)Oc2ccccc2)cc1	0.0%
Cc1cccc(NC(=O)C(C)N2C(=O)C3C4CC(C(Br)C4Br)C3C2=O)c1 (configuration not stated)	-14.0%
Cc1ccc(C(=O)Nc2ccccc2C(=O)N2CCCC2)cc1[N+](=O)[O-]	-11.1%
Nc1c2c(nc3ccccc13)N(C1CCCCC1)CC2	?
NC(=O)c1ncc(C(F)(F)F)cc1Oc1cccc(F)c1	-1.5%
Cc1ccc(SCc2nc3ccccc3[nH]2)cc1	?
CCC(C)NC(=O)c1cc(Sc2nnc(C)s2)nc2ccccc12 (configuration not stated)	?
